# Six1-Eya2 inh: blocks human Six1 binding to Eya2; Q15475+O00167; AlphaScreen GST-Six1/His-Eya2 binding, biochemical; stronger effect = lower value; control for the full effect not named in the record; activity change, % (no concentration beside the values); 360,000 tested, 0.56% active; in the data active = activity change below about -65%; inconclusive = about -30% to -65%; inactive = above about -30%; note: % is set by controls: 0 for no effect and ±100 for the full control effect; compound concentration not given in the record
#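 AlphaScreen with GST-Six1 and His-Eya2 (5X mix: 250 nM and 500 nM), glutathione donor and nickel acceptor beads; buffer 50 mM Tris pH 8.0, 300 mM NaCl, 1 mM TCEP; 1 h at 37 C in the dark.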
# TRPML1 blocker: human mucolipin-1 channel inhibition | TRPML1-inducible cells, Ca2+ dye fluorescence, FDSS; stronger effect = lower value; inhibition of EC80 agonist-evoked calcium signal | activity change, negative = inhibition, % (test concentration not listed) | 390,000 tested, 0.02% active | AID 624415; in the data active means activity change below about -50%; inconclusive means about -30% to -50%; inactive means above about -30%;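 note: stimulus is agonist 54-4 at its EC80 concentration; % is set by controls: 0 for no effect and ±100 for the full control effect; compound concentration not given in the record; the text of the record puts the active cut at -80%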
# Target sequence (Q9GZU1 whole entry, looked up): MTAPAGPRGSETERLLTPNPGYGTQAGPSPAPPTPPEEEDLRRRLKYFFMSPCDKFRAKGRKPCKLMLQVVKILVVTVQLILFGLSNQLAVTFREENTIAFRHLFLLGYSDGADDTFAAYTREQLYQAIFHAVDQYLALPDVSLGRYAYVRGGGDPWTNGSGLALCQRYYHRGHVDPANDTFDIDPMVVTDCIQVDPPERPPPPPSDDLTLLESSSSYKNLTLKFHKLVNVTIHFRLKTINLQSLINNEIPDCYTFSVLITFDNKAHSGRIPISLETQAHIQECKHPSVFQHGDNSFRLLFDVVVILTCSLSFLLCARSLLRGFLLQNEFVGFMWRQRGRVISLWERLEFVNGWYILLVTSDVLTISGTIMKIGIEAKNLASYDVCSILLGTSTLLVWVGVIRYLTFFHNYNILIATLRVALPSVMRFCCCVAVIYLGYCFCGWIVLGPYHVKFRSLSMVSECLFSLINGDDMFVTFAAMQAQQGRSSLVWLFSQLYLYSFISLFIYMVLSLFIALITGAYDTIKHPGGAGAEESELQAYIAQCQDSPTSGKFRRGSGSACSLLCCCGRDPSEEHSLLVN
#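 Tet-induced TRPML1-DL cells loaded with Ca8 no-wash calcium dye were read kinetically on FDSS. Compound addition was followed by EC80 agonist 54-4 (4 uM final); inhibition was read over 110 s.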
# CtBP-E1A blk: inhibitors of CtBP/E1A interaction | 340,000 tested, 0.49% active | activity change, % (test concentration not listed) | AlphaScreen GST-E1A/His-CtBP binding, 1536-well; stronger effect = lower value; control for the full effect not named in the record; in the data active means activity change below about -65%; inconclusive means about -30% to -65%; inactive means above about -30%; note: % is set by controls: 0 for no effect and ±100 for the full control effect; compound concentration not given in the record
#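 In 5 uL wells, 23 nL compound meets equimolar GST-E1A and His-CtBP (5X stock 125 nM each) for 2 h, 37 °C. Beads (5X, 50 ug/mL) then 1 h, 37 °C, dark.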
# TRPV1 PAM: human TRPV1 potentiation. potentiation, % at 8.33 µM. TRPV1-expressing cells, Fluo-8 calcium influx, capsaicin EC20 potentiation; host cell line not named in the record; control for the full effect not named in the record. AID 540277. Q8NER1. 320,000 tested, 0.02% active; active means potentiation above 80%; inconclusive means 30% to 80%; inactive means below 30%; note: 0% is about no effect
#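 Fluo-8 calcium influx in TRPV1-expressing cells, kinetic read (ex 480/em 520 nm). Compound added and read 3 min for agonist activity, followed by capsaicin at EC20 final and 2 min further read for enhancement.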
# TRPML1 agonist: human mucolipin-1 channel agonism; Q9GZU1; TRPML1-expressing cells, Ca2+ dye fluorescence, FDSS; host cell line not named in the record; reference of the full effect not given here; activation, % (test concentration not listed); 410,000 tested, 0.12% active; AID 624414; in the data active = activation above about 50%; inconclusive = about 30% to 50%; inactive = below about 30%; note: 0% is about no effect; the text of the record puts the active cut at 80%
#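 In this qHTS format, compounds were pin-transferred onto Ca8-dye-loaded TRPML1-DL cells induced with Tet overnight, and intracellular Ca2+ fluorescence was recorded kinetically for 110 s after a 10 s baseline. A subsequent 4uM final 54-4 (EC80) addition followed by a second 110 s read served as the antagonist phase.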
# D2 PAM: potentiates the human D2 dopamine receptor allosterically; potentiation, % (test concentration not listed); 360,000 tested, 0.23% active; DiscoveRx D2 beta-arrestin cells, luminescence, 90 min; 100% = 57 uM dopamine signal; AID 624464; P14416; active = potentiation of 50% or more; inconclusive = 30% to 50%; inactive = 30% or less;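 note: compound concentration not given in the record; tested on top of an EC20 dose of dopamine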
# Target sequence (P14416 whole entry, looked up): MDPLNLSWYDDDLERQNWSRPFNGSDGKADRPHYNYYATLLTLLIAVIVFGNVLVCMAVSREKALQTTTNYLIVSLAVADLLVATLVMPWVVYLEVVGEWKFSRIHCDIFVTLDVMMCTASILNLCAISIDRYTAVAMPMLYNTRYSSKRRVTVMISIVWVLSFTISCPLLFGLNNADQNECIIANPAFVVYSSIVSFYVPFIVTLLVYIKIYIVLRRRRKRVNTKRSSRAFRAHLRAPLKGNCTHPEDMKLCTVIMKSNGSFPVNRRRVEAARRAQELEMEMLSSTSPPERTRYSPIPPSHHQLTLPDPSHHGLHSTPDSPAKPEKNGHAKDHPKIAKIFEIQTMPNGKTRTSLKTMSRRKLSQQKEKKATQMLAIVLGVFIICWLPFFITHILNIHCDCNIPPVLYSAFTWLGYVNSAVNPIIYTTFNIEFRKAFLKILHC
#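 PathHunter D2 cells, attached overnight at 37 deg C, received compound in DMSO plus dopamine at EC20 (50 nM final) for 90 min at 37 deg C. Beta-arrestin recruitment was read as luminescence after 1 h with detection reagent at ambient temperature.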
# An asterisk follows results filed as active; ? = inconclusive; · = not tested or not shown; & = joins results of further samples.
# Preview:
SMILES,Six1-Eya2 inh,TRPML1 blocker,CtBP-E1A blk,TRPV1 PAM,TRPML1 agonist,D2 PAM
CN(C)CCCNc1ncc(C(F)(F)F)cc1Cl,8,3,22,12,-0.4,-20
Nc1ccccc1SC/C=C/CSc1ccccc1N,-12,-15,7,8,-0.1,-3
N#Cc1nc(-c2ccc(Cl)cc2)oc1NCc1ccco1,-4,27,0,17,-1.4,-5
CCOc1cc(/C=C2\SC(=Nc3ccccc3)N(c3ccccc3)C2=O)ccc1OCC(=O)O,-14,-10,1,5,1.4,-30

# The list itself, from the start:
SMILES,Six1-Eya2 inh,TRPML1 blocker,CtBP-E1A blk,TRPV1 PAM,TRPML1 agonist,D2 PAM
CN(C)CCCNc1ncc(C(F)(F)F)cc1Cl,8,3,22,12,-0.4,-20
Nc1ccccc1SC/C=C/CSc1ccccc1N,-12,-15,7,8,-0.1,-3
N#Cc1nc(-c2ccc(Cl)cc2)oc1NCc1ccco1,-4,27,0,17,-1.4,-5
CCOc1cc(/C=C2\SC(=Nc3ccccc3)N(c3ccccc3)C2=O)ccc1OCC(=O)O,-14,-10,1,5,1.4,-30
Cn1c(SCC(=O)N2CCOCC2)nnc1-c1ccc(NC(=O)c2ccccc2F)cc1,19,14,41,5,-0.4,1
COCc1nc2ccccc2n1Cc1c(F)cccc1Cl,-1,28,4,-10,1.2,-5
Cc1ccc(C(=O)NCN2CCN(c3ccc(F)cc3)CC2)cc1,-5,5,1,-15,0.5,-2
CC(=O)c1cc2c(cc1NC(=O)Cn1nc(C)c(C)c(C#N)c1=O)OCO2,-5,-3,1,4,0.2,6
O=C(NCc1cccnc1)c1cc(C(=O)C2CC2)c[nH]1,2,-1,-7,3,0.0,-3
O=S1(=O)CC(N2CCCC2)CN1Cc1cn(Cc2cccc(C(F)(F)F)c2)nn1 (stereo not given),0,·,8,·,-0.6,·
CCOc1cccc(=O)c2c(C)n(Cc3ccccc3)c(C)c12,0,12,·,8,0.8,-4
CCN(C(=O)CSc1nc2ccccc2c(=O)n1-c1cccc(C)c1)C1CCS(=O)(=O)C1 (stereo not given),-2,16,0,5,0.0,-3
O=C(c1ccc(S(=O)(=O)N2CCCC2)cc1)N(c1ccccc1)C1C=CS(=O)(=O)C1 (stereo not given),4,-8,-3,-4,0.1,6
O=C(NCCN1CCN(Cc2ccccc2)CC1)C1c2ccccc2C(=O)N2CCc3ccccc3C12 (stereo not given),2,4,5,1,-0.6,-34
CC(=O)N(C)N1c2ccccc2CCc2ccccc21,7,-12,5,1,-0.1,-1
O=C(NCCCN1CCOCC1)C1COc2ccccc2O1 (stereo not given),6,-16,-4,3,1.2,-3
CCCCOc1ccc(N2C(=O)CC(N(O)c3ccccc3)C2=O)cc1 (stereo not given),-2,2,-3,11,-1.1,?
O=C(CC1C(=O)NCCN1Cc1ccc(-c2ccccc2)cc1)NCc1ccccc1 (stereo not given),-5,-2,0,4,0.3,-11
COc1ccc(CCNc2nc(-c3sc(C)nc3C)cs2)cc1OC,-21,4,-10,8,0.9,0
NC(=O)C1CCN(C(=O)c2ccc(NS(=O)(=O)c3ccc(F)c(F)c3)cc2)CC1,4,-4,12,1,-0.3,-4

# 3 compounds out of the list, ordered by length of the SMILES, smallest number first:
SMILES,Six1-Eya2 inh,TRPML1 blocker,CtBP-E1A blk,TRPV1 PAM,TRPML1 agonist,D2 PAM
CN(C)CCCNc1ncc(C(F)(F)F)cc1Cl,8,3,22,12,-0.4,-20
CC(=O)N(C)N1c2ccccc2CCc2ccccc21,7,-12,5,1,-0.1,-1
O=C(NCCN1CCN(Cc2ccccc2)CC1)C1c2ccccc2C(=O)N2CCc3ccccc3C12 (stereo not given),2,4,5,1,-0.6,-34

# The results go on.
SMILES,Six1-Eya2 inh,TRPML1 blocker,CtBP-E1A blk,TRPV1 PAM,TRPML1 agonist,D2 PAM
Cc1cc(C)c(OCC(=O)Nc2nnc(C3CC3)s2)c(C)c1,11,-2,10,1,2.3,-3
Cn1c(=O)n(CCOc2ccccc2Cl)c2ccccc21,-8,0,-7,-18,2.6,-30
COc1cccc(CCNC(=O)COc2cccc3c2OC(C)(C)C3)c1,-1,15,-1,-9,2.6,1
Fc1ccc(-n2nnc(-c3ccccc3Cl)n2)cc1,2,-13,5,6,-0.2,-2
O=C(Nc1ccc2c(c1)CCC2)c1ccc(Br)o1,4,-8,-3,-8,0.1,-11
COc1ccc(/C=N\NC(=O)COc2ccc(Cl)cc2Cl)c(C(=O)O)c1OC,-1,5,11,6,0.1,-3
CCC(C)C(=O)Nc1cc(C(=O)OC)cc(C(=O)OC)c1 (stereo not given),3,22,4,-9,-0.6,-11
CCOC(=O)c1ccc(NC(=O)/C=C/c2cccs2)cc1,5,18,5,2,2.8,-10
NS(=O)(=O)c1ccc(NC(=O)c2cccc(N3C(=O)c4ccccc4C3=O)c2)cc1,6,-8,3,4,-0.2,6
COc1cccc(CN2C(=O)C(C)N(C(=O)c3c(F)cccc3F)c3ccccc32)c1 (stereo not given),-9,21,·,-8,2.3,-9
COc1cc2c(c(O)c1OC)C(=O)C(OC)CCC2 (stereo not given),8,2,0,-5,-0.6,6
Cc1cc(C(=O)Nc2ccc(C)c(S(=O)(=O)N3CCOCC3)c2)c2ccccc2n1,-10,12,·,-1,-2.0,3
OC(CNCC#Cc1ccccc1)c1ccccc1 (stereo not given),11,0,8,1,-0.1,-11
Cc1noc(C)c1NC(=O)N(C)C[C@H]1Oc2c(NC(=O)c3ccncc3)cccc2C(=O)N([C@H](C)CO)C[C@@H]1C,16,8,0,·,0.1,-3
COc1cccc(C2CNC3(CCCC(C)C3)c3[nH]c4ccccc4c32)c1OC (stereo not given),-28,-5,·,-2,0.5,-17
O=C(Nc1ccc([N+](=O)[O-])cc1)C1C(c2ccccc2)=C1c1ccccc1,-5,11,6,-17,1.5,-17
CC[N+]1(C)[C@@H]2CC[C@H]1CC(OC(=O)[C@H]1CCC(C(=O)OC3C[C@H]4CC[C@@H](C3)[N+]4(C)CC)(c3ccccc3)c3ccccc31)C2 (stereo not given in full),-3,-5,1,0,-0.8,8
CCCCNC(=S)NNC(=O)c1csc(CC)c1,3,-11,4,8,-0.9,2
CC(C)C[C@@H]1NC(=O)[C@H](Cc2ccccc2)N(C)C(=O)[C@H](C)NC(=O)c2ccccc2NC(=O)[C@H](Cc2ccc(O)cc2)N(C)C1=O,-7,·,-6,18,·,?
Cn1c(NC(=O)c2ccc(C(C)(C)C)cc2)cc(=O)n(C)c1=O,11,-4,-2,10,-0.1,-8
COC(=O)c1ccccc1NC(=O)CSc1nnc(CNS(=O)(=O)c2ccc(C)cc2)n1C,-5,-4,2,-8,1.0,16
CCOc1cc2[nH]c(=S)n(Cc3ccc(C(=O)NCC(OC)OC)cc3)c(=O)c2cc1OCC,-2,2,-2,1,-0.1,-8
CCN1CCc2c(sc(NC(=O)COc3ccccc3)c2C(=O)OC)C1,-8,-5,-8,0,-0.7,-13
CC(=O)Nc1ccc(S(=O)(=O)N2CCC(N3CCCCCC3)CC2)cc1,-24,8,-6,0,0.4,-9
Cc1c(C(=O)N2CCCc3ccccc32)oc2ccccc12,-3,5,17,4,2.8,-9
COCc1nnc(NC(=O)c2ccc(S(=O)(=O)N(CC(C)C)CC(C)C)cc2)o1,-7,0,-11,21,5.1,0
CCC1Oc2ccccc2N(Cc2ccccc2C)C1=O (stereo not given),12,-19,6,-9,3.4,-13
CCCOC(=O)c1ccc(NC(=O)c2cc(Cl)ccc2OC)cc1,4,-9,3,13,0.6,8
CC(C)(C)NC(=O)COC(=O)c1ccc(Cl)c(S(N)(=O)=O)c1,-4,15,8,8,0.9,1
COc1ccc(OC)c(NC(=O)CCCC(=O)NC2CCCCC2)c1,3,-6,-21,4,-0.4,-6
Cc1ccc(C(=O)/C=C/NNC(=O)c2ccccc2O)cc1,-15,-3,-7,10,2.2,-6
CC(C)C(=O)N1CCN(c2nc(-c3ccc(Cl)cc3)cs2)CC1,-16,25,·,1,1.3,-13
NNc1nc2c(-c3cccc(C(F)(F)F)c3)nnn2c2ccccc12,-3,2,6,-3,0.2,14
CC(=O)c1ccc2c(c1)c1ccccc1n2CC(C)C,11,3,10,4,0.0,-6
Cc1ccc(-c2cc(C(=O)OCC(=O)NC3CC3)c3ccccc3n2)cc1,-11,-6,·,-19,-1.4,-2
Cc1cc(C(=O)O)cc(S(=O)(=O)N2CCOCC2)c1C,-1,-8,7,-5,-0.7,-5
O=c1c2cccnc2[nH]c(=S)n1CCCN1CCN(c2ccc(F)cc2)CC1,0,-1,6,9,-0.6,-30
CC(C)CC(NC(=O)OC(C)(C)C)c1cn([C@@H](Cc2ccc(O)cc2)C(=O)N2CCN(C(=O)OC(C)(C)C)CC2)nn1 (stereo not given in full),0,20,2,25,-0.5,-2
COc1ccc(NC(=O)N2CCCC(c3nc(-c4ccc(OC)cc4)no3)C2)cc1 (stereo not given),-2,4,-2,-5,-0.8,-4
CC(C)Sc1nnc(-c2ccc(S(=O)(=O)N3CCOCC3)cc2)n1C,3,0,0,1,-0.1,2
CC(C)(C)c1ccc(C(=O)O[C@H]2[C@H](Cc3ccccc3)NS(=O)(=O)[C@H]3C[C@@H]4C=C[C@]23O4)cc1,-5,39,-1,4,1.4,-10
O=C(COC(=O)c1cccnc1Cl)NCCCc1ccccc1,2,6,1,-26,1.5,-19
COc1ccc(N(CC(=O)NCCc2ccccc2)C(=O)c2csnn2)cc1,2,12,-2,-3,0.7,-8
CCn1nc(NS(=O)(=O)c2ccccc2)c2cc3ccccc3nc21,-10,-5,-10,-5,-0.1,-13
Cc1ccccc1S(=O)(=O)Cc1ccc(C(=O)NCc2cccs2)o1,4,0,3,6,-0.6,0
COc1ccc(CN2CCC(n3nccc3NC(=O)C3CC3)CC2)c(Cl)c1OC,4,21,3,11,-0.4,-17
Cc1ccc(C)c(OCc2cc(C(=O)N3C[C@@H](C)O[C@@H](C)C3)no2)c1,6,2,-5,-16,1.2,4
O=C(NCc1ccncc1)NC1CCCCC1,7,3,3,-22,0.4,-6
O=C1[C@H]2[C@@H]3CCN1CCC[C@@H]2C=C[C@@H]3c1ccc(Br)cc1,-11,·,0,·,-1.0,·
COc1cc(O)c(C(CCN2CCCC(C)C2)c2cc(OC)c(OC)c(OC)c2)c(OC)c1 (stereo not given),4,-14&11,22,28,0.3&0.1,-21
COc1ccccc1C(=O)N1CCN(c2nc3cc(C)c(C)cc3cc2C#N)CC1,16,15,4,-9,-0.7,-2
Cc1nnsc1C(=O)NC1CCCc2c1cnn2-c1ccc(F)cc1F (stereo not given),-7,5,-1,-21,-0.3,-1
CC(=O)Nc1ccc(S(=O)(=O)N2CCC(N3CCCC3)CC2)cc1,-3,11,5,14,-0.4,-1
COc1ccc(/C=N/NC(=O)CCn2cnc(-c3ccccc3)c2-c2ccccc2)cc1,-24,-18,-22,?,1.0,0
Cc1ccsc1/C=N/NC(=O)Cc1ccc(Cl)cc1,4,·,5,-2,·,-30

# Compound activity (PubChem BioAssay)
